PV pol inh: poliovirus RdRp elongation inhibitors, primary screen, biochemical, fluorescence polarization, total intensity; Genome polyprotein (Poliovirus type 1 (strain Mahoney)), P03300; poliovirus polymerase elongation; hits give low values; % elongation, % (compound at 16.7 µg/mL); 150,000 compounds, 0.66% hits; AID 588519, 2011; in the data active = % elongation below about 90%; note: some results filed as inactive read as strong as hits
Target sequence (P03300 1749-2209 limits assumed): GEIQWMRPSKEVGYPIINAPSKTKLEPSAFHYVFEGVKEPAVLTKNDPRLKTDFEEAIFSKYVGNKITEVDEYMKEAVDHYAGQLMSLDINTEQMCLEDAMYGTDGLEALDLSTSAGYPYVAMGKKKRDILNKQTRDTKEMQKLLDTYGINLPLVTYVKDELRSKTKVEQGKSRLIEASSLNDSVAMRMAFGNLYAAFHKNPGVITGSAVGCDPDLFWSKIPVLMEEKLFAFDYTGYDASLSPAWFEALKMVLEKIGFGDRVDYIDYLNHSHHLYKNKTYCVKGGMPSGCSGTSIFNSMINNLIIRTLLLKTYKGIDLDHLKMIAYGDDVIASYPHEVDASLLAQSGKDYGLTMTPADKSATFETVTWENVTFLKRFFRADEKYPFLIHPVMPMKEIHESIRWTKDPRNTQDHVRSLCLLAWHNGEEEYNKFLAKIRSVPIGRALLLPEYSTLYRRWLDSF
MenB inh: M. tuberculosis MenB inhibitors, primary screen, biochemical, absorbance | inhibition, %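 (about 12 µg/mL by stock and volumes)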 | MenB enzyme assay, absorbance read-out; some hits fall short of the stated cut | 1,4-dihydroxy-2-naphthoyl-CoA synthase (Mycobacterium tuberculosis (strain ATCC 25618 / … | 100,000 compounds, 0.43% hits;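 active = mean of two replicates above 30%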;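 note: 0% = no compound and 100% = wells with inactive enzyme; the first replicate is given; strong numbers were not always called active; inactives centre near -10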
Mtb MbtI inh: MbtI salicylate synthase inhibitors, primary screen, biochemical, fluorescence intensity; AID 493033, 2011; inhibition, %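 (about 17 µg/mL by stock and volumes)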; P9WFX0; purified MbtI enzyme, fluorescence intensity read-out; 100,000 compounds, 0.89% hits;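 active = above 50% in both replicates, above 80% if mildly self-fluorescent; inactive = the rest, strongly fluorescent compounds included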;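 note: 0% = mean of negative and 100% = mean of positive controls; one replicate is shown; some compounds called inactive have numbers as strong as hits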
Target sequence (P9WFX0 whole entry, looked up): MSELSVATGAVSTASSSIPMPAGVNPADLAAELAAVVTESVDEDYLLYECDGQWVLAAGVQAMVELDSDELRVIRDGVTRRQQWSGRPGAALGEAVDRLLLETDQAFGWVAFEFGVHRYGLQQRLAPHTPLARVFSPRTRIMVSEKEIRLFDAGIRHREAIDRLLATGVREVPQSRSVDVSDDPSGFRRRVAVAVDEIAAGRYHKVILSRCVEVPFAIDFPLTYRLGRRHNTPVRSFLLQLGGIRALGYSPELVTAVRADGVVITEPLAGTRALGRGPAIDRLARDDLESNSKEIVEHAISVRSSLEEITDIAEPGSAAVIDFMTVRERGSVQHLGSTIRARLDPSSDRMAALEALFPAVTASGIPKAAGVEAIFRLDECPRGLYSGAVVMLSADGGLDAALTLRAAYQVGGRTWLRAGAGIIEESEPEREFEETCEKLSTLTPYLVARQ
PV pol inh intensity: also measured in PV pol inh; calls as there; % elongation; measured here: total intensity read-out; formula for this scale not given here;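 total fluorescence in place of polarization; lower means less elongation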
* marks the source's active call; other numbers are inactive results; . = not tested or not shown.

Every second line gives: PV pol inh, PV pol inh intensity, MenB inh, Mtb MbtI inh
#1 Cc1csc(NC2c3ccccc3C(=O)N2Cc2ccccc2)n1 (configuration not stated)
  103.0, 103.0, -12.5, 0.0
#2 CC(NC(=O)Cn1cccc1C(=O)c1ccccc1)C12CC3CC(CC(C3)C1)C2 (configuration not stated)
  104.0, 103.0, -6.6, -10.7
#3 CC(c1ccccc1)n1c(C2CC2)nc2ccccc21 (configuration not stated)
  102.0, 102.0, -29.4, 7.4
#4 Oc1c(C=NCc2ccccc2)sc2ccccc12
  105.0, 98.0, -330.7, 13.5
#5 CCN1CCN(CC2CCCCC2)CC1
  100.0, 102.0, 34.1*, 8.4
#6 CNS(=O)(=O)c1cccc(C(=O)OCC(=O)c2cc(C)n(C)c2C)c1
  101.0, 103.0, 3.0, -4.0
#7 O=C(CN1CCCN(Cc2ccccc2)S1(=O)=O)N1CCCCCC1
  100.0, 101.0, 1.9, 1.4
#8 O=C(Cn1c(SCC(=O)Nc2nccs2)nc2ccccc21)NCc1ccccc1
  102.0, 102.0, -20.3, -7.2
#9 Cc1noc(C)c1COc1ccc(CC(=O)Nc2ccccc2N2CCOCC2)cc1
  100.0, 98.0, -9.1, -1.2
#10 O=C(Nc1ccon1)c1cccc(Cl)c1
  100.0, 99.0, -10.4, -5.1
#11 CC(C)(C)S(=O)(=O)/C(C#N)=C/N1CCC(n2cccc2)CC1
  107.0, 109.0, -26.5, -0.4
#12 Cc1ccc2nc(COC(=O)Cc3ccsc3)cc(=O)n2c1
  96.0, 97.0, 10.1, 99.2
#13 CCCn1c(SC(C)C(=O)O)nc2ccccc21 (configuration not stated)
  99.0, 104.0, ., -4.5
#14 C[C@@]1(OC(=O)/C=C\c2ccccc2)C[C@H](O)[C@@]2(O)C=CO[C@H](OC3OC(CO)C(O)C(O)C3O)C12 (some centres not stated)
  101.0, 102.0, -0.3, -7.3
#15 CCN1C=CC2=C(C#N)C(N)C(C#N)(C#N)C(c3cccs3)C2C1 (configuration not stated)
  70.0, 192.0, -73.3, 22.3
#16 COc1cccc2c1OC1=C(C(=O)CC(C)(C)C1)C2CC(=O)c1ccc(F)cc1 (configuration not stated)
  102.0, 107.0, -16.4, -11.3
#17 Cc1ccc(Nc2nn3c(=O)c4ccccc4nc3s2)cc1
  101.0, 101.0, 0.0, -8.1
#18 COc1ccc(N(C(=O)Nc2ccccc2N)C(C)C2C(C)(C)C2(C)C)cc1 (configuration not stated)
  110.0, 114.0, -25.6, .
#19 CSc1cccc(NC(=O)CN(Cc2ccccc2)S(C)(=O)=O)c1
  100.0, 102.0, -10.6, -2.8
#20 C#CCn1c(=NC(=O)c2cccs2)sc2ccccc21
  101.0, 104.0, -4.8, -4.6
#21 Cc1cc(C)c(S(=O)(=O)N(C)CC(=O)Nc2ccc3c(c2)OCO3)c(C)c1
  100.0, 100.0, -5.1, 0.6
#22 Cc1c(C(=O)NN)oc2ccccc12
  98.0, 103.0, -8.2, 9.4
#23 COc1cc2c(c(OC)c1)C(c1ccncc1)CC(=O)N2 (configuration not stated)
  101.0, 103.0, 9.5, -5.0
#24 c1ccc(CSc2ncnc3c2cnn3-c2ccccc2)cc1
  103.0, 104.0, 10.8, 92.6
#25 CCc1ccc(NC2=NC(C(=O)NC3CCCCC3)CC(=O)N2)cc1 (configuration not stated)
  101.0, 103.0, 12.9, -2.9
#26 COCCOc1ncc(NC(=O)CSCC(=O)O)cc1C(F)(F)F
  102.0, 99.0, -17.2, -3.9
#27 CCCC1C2c3ccccc3C(c3ccccc32)C1C(=O)Nc1ccccc1OC (configuration not stated)
  107.0, 102.0, -24.7, .
#28 CC(C)=C1C(=O)Nc2ccc(S(=O)(=O)N3CCCCC3)cc21
  101.0, 105.0, -24.0, -2.9
#29 CCCCCCSc1s[nH]c(=O)c1C#N
  99.0, 100.0, 1.2, 13.8
#30 CC(CC(=O)NC1CCCC1)c1ccccc1 (configuration not stated)
  101.0, 103.0, -9.7, 0.8

The closing 2 compounds of the part above lead into the next:
Every second line gives: PV pol inh, PV pol inh intensity, MenB inh, Mtb MbtI inh
#29 CCCCCCSc1s[nH]c(=O)c1C#N
  99.0, 100.0, 1.2, 13.8
#30 CC(CC(=O)NC1CCCC1)c1ccccc1 (configuration not stated)
  101.0, 103.0, -9.7, 0.8
#31 CCc1ccc2[nH]c(=O)c(CN(Cc3ccco3)C(=O)c3ccccc3)cc2c1
  105.0, 101.0, -39.0, 1.1
#32 COC(=O)CSc1nc2c(cc1C#N)CCCC2
  102.0, 104.0, 28.6, -385.5
#33 O=C(c1ccccc1)n1nc(-c2ccco2)nc1NCc1ccccc1
  100.0, 102.0, -16.0, -8.8
#34 CCCN(CCC)C1Sc2ccc(C(=O)OC)cc2NC1=O (configuration not stated)
  100.0, 102.0, -54.7, 7.1
#35 CCOC(=O)Cc1ccc(NC(=O)c2ccc(OC)c(OC)c2)cc1
  100.0, 103.0, -10.6, -12.7
#36 Cc1noc(C)c1CSc1ccccc1C(=O)N1CCN(C(=O)c2ccco2)CC1
  108.0, 112.0, -5.7, -8.1
#37 CCC(=O)N1CCc2cc(S(=O)(=O)Nc3ccc(CC)cc3)ccc21
  103.0, 109.0, -14.7, -9.1
#38 CSc1nc2ccccc2n1CN1CCN(CC(=O)Nc2ccccc2Cl)CC1
  99.0, 97.0, 9.3, 0.1
#39 Cc1cc(NC(=O)COC(=O)/C=C/c2cccs2)no1
  105.0, 96.0, -22.4, 0.2
#40 CCN(CC)S(=O)(=O)N1CCN(S(=O)(=O)N2CCOCC2)CC1
  106.0, 102.0, 21.0, 0.1
#41 COc1cc2c(cc1OC)CN(CN1C(=O)CC3(CCCC3)C1=O)CC2
  102.0, 108.0, -30.3, -4.8
#42 COc1cccc(N2CCN(C(=O)CNC(=O)C34CC5CC(CC(C5)C3)C4)CC2)c1
  95.0, 99.0, -7.2, -15.5
#43 COc1ccc(-c2c(C)nn3c(N)c(-c4ccccc4)cnc23)cc1
  103.0, 103.0, -19.6, 19.9
#44 Cn1cc(C(=O)N2CCCC2)c(=O)c2cc(S(=O)(=O)N3CCCC3)ccc21
  101.0, 97.0, -9.4, 8.6
#45 Cc1nc2ncnn2c(C)c1CCC(=O)N(C)CCOc1ccc(Cl)cc1
  100.0, 107.0, -5.7, -2.6
#46 O=C(CN1C(=O)c2ccccc2C1=O)OCc1cc(=O)n2ccsc2n1
  104.0, 102.0, -18.3, -73.5
#47 C=CCN(CC=C)Cc1c(O)ccc2oc(C)c(C(=O)Nc3ccccc3C)c12
  104.0, 103.0, -1.9, 17.3
#48 CC(c1ccncc1)N(CCN(C)C)C(=S)Nc1cc(F)cc(F)c1 (configuration not stated)
  104.0, 108.0, -6.3, -7.3
#49 CC(C)c1cccc(C(C)C)c1NS(C)(=O)=O
  104.0, 105.0, -24.7, -16.0
#50 O=C(O)CCc1nc2ncccc2c(=O)n1Cc1ccc(F)cc1
  101.0, 100.0, 13.8, 9.6
#51 NC(=O)NC(=O)C(Sc1ncccn1)c1ccccc1 (configuration not stated)
  107.0, 109.0, -26.2, 5.2
#52 Cn1c(=O)n(C)c2cc(Nc3cc(N4CCCC4)ncn3)ccc21
  98.0, 104.0, 17.0, 11.2
#53 O=C(NCCCN1CCCC1=O)c1cc(=O)c2ccccc2o1
  98.0, 102.0, ., -0.9
#54 COC(=O)c1ccc2c(c1)NC(=O)CN2
  117.0, 152.0, 0.7, 129.4
#55 Cc1cc2[nH]c(=O)c(=O)[nH]c2cc1S(=O)(=O)N1CCN(CCOc2ccc(Cl)cc2)CC1
  101.0, 99.0, -0.5, 199.9
#56 Cn1c(=O)c2c(ncn2CC(=O)N(CC(=O)NC2CCCCC2)Cc2ccccc2Cl)n(C)c1=O
  104.0, 102.0, -12.5, -7.1
#57 CSc1nnc(CNC(=O)NCc2ccccc2)n1C
  101.0, 101.0, 12.7, -5.4
#58 CN(C(=O)c1nc(-c2ccc(Cl)cc2)n2c1CCCCC2)C1CCCCC1
  101.0, 106.0, -11.4, -8.9
#59 N#CC1=C(N)SC(N)=C(C#N)C12C(=O)N(CCc1ccccc1)c1ccccc12
  112.0, 120.0, -12.0, .
#60 CCCCCc1nc2ccccc2c(=O)n1N
  101.0, 103.0, -15.1, 5.0

Individual results from the results shown:
CCC(=O)N1CCc2cc(S(=O)(=O)Nc3ccc(CC)cc3)ccc21 – PV pol inh = 103.0
O=C(CN1C(=O)c2ccccc2C1=O)OCc1cc(=O)n2ccsc2n1 – MenB inh = -18.3
CCCC1C2c3ccccc3C(c3ccccc32)C1C(=O)Nc1ccccc1OC (configuration not stated) – PV pol inh intensity = 102.0
COc1ccc(N(C(=O)Nc2ccccc2N)C(C)C2C(C)(C)C2(C)C)cc1 (configuration not stated) – MenB inh = -25.6
CCc1ccc2[nH]c(=O)c(CN(Cc3ccco3)C(=O)c3ccccc3)cc2c1 – PV pol inh intensity = 101.0
COc1cc2c(cc1OC)CN(CN1C(=O)CC3(CCCC3)C1=O)CC2 – MenB inh = -30.3

Later entries:
Every second line gives: PV pol inh, PV pol inh intensity, MenB inh, Mtb MbtI inh
#61 COc1cc(C)nc(N(C)S(=O)(=O)c2ccccc2)n1
  101.0, 101.0, 0.7, -1.1
#62 O=C(CCN1C(=O)c2ccccc2C1=O)N1CCC(c2ccccc2)C1 (configuration not stated)
  101.0, 98.0, -7.8, 7.6
#63 COc1ccccc1-c1nn(CN(c2ccccc2)c2ccccc2)c(=S)o1
  101.0, 93.0, 7.7, .
#64 Cc1ccccc1C(=O)NC(=S)N1CC(C)OC(C)C1 (configuration not stated)
  102.0, 106.0, -26.1, -3.8
#65 O=C(NC(=O)N1CCCc2ccccc21)c1ccccc1
  98.0, 101.0, -11.6, 2.0
#66 O=C1c2ccccc2C(=O)N1CCSc1n[nH]c(-c2ccccc2F)n1
  102.0, 108.0, -28.2, -5.3
#67 COc1ccc(CCNC(=O)C2C3C=CC(C3)C2C(=O)O)cc1OC (configuration not stated)
  101.0, 105.0, -13.0, .
#68 O=C(/C=C/c1ccccc1)NCCN1CCOCC1
  98.0, 102.0, 10.0, 3.1
#69 CCC(=O)N1CCc2cc(S(=O)(=O)NC(C(=O)NCc3ccco3)C(C)C)ccc21 (configuration not stated)
  103.0, 101.0, -31.8, -4.4
#70 C/C(=N\OC(=O)Nc1ccc(Cl)cc1)c1cc(-c2ccccc2)no1
  100.0, 102.0, -0.2, 2.4
#71 O=C(CSc1nccc(=O)[nH]1)C12CC3CC(CC(C3)C1)C2
  103.0, 109.0, -29.4, 3.5
#72 CC(C)(C)NC(=O)Cn1c(SCC(=O)c2ccc3c(c2)OCCO3)nc2ccccc21
  99.0, 102.0, 3.1, 4.2
#73 O=C1c2ccccc2C(=O)N1CN1CCN(Cc2ccc3c(c2)OCO3)CC1
  99.0, 108.0, -2.6, .
#74 CC(Sc1nnc(C2CCCCC2)n1-c1cccc(Cl)c1)C(=O)O (configuration not stated)
  102.0, 99.0, -84.8, 3.2
#75 O=C(CSc1ccc2ccccc2n1)NCCCN1CCCC1=O
  100.0, 101.0, -8.3, 60.0
#76 Clc1ccccc1OCCBr
  102.0, 104.0, ., -5.0
#77 O=C(Cn1ncc(Cl)c(Cl)c1=O)N1CCOCC1
  ., ., -24.2, 13.3
#78 CC(C)(C)n1ncc2c(=O)n(CC(=O)N3CCCC3)cnc21
  99.0, 101.0, -15.4, 8.2
#79 O=C(CSc1ncccn1)N1CCCc2ccccc21
  101.0, 104.0, -14.2, 2.0
#80 CC(C)c1nnc(SCC(=O)NC(C)(C)C)n1C
  103.0, 103.0, -24.8, -4.6
#81 CC1=NNC(=O)/C1=C/c1ccc(-c2ccc(Cl)cc2)o1
  104.0, 111.0, -4.8, 2.4
#82 N#Cc1cc2c(nc1SC1CCc3ccccc3C1=O)CCCC2 (configuration not stated)
  99.0, 103.0, 9.2, 31.8
#83 O=C(NCc1ccccc1)C1CCC(C(=O)NCc2ccccc2)N1 (configuration not stated)
  104.0, 102.0, 2.4, 1.6
#84 CCNc1oc(COc2ccc(OC)cc2)nc1C#N
  106.0, 99.0, 3.6, .
#85 NCCc1nc2ccccc2s1
  104.0, 109.0, -0.4, -2.6
#86 NC(=O)COC(=O)c1sc2cc(F)ccc2c1Cl
  102.0, 106.0, -0.6, -16.1
#87 C=CCN1C(=O)CS/C1=C(\C#N)S(=O)(=O)c1ccc(C)cc1
  98.0, 102.0, -68.5, 1.2
#88 Cc1ccc(-c2ccc(OC(=O)c3ccccc3F)cc2)cc1
  106.0, 112.0, -13.4, .
#89 CC1=Nc2cc(C(=O)NCc3ccco3)ccc2Sc2ccc(Cl)cc21
  104.0, 103.0, -1.2, -0.4
#90 COc1cccc(NC(=O)c2c(OC)cccc2OC)c1
  98.0, 105.0, -17.6, -14.2
#91 COc1ccc(-c2noc(=O)n2CC(=O)Nc2ccccc2C)cc1
  101.0, 102.0, 8.0, 8.0
#92 Cc1[nH]c2ccccc2c1C(=O)C(C)OC(=O)c1ccccc1-n1cnnn1 (configuration not stated)
  102.0, 110.0, -2.9, 1.4

Source: PubChem
